Sa growth 42C – inhibitors of Staphylococcus aureus growth at 42 °C; S. aureus RN4220 growth, OD600, 20 h; stronger effect = lower value; relative growth, % (no concentration beside the values); hit rate 0.53% among 170,000; AID 720641;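 active = growth at 42 °C up to 50% and 20 or more points under that at 30 °C, or under 10% at both; inconclusive = no clear call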;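 note: 300 nL library stock went into each well; scaled to the means of positive and negative controls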
GIV Gai3 FP – inhibitors of GIV GBA-motif binding to rat Galpha-i3; percent of control (FP), % (test concentration not listed); P08753; hit rate 0.42% among 210,000; Galpha-i3/FITC-GIV peptide fluorescence polarization, 90 min; stronger effect = lower value; scaled: aluminum fluoride 0%, vehicle 100%;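 active = replicate mean at 85% of control or lower, very high polarization wells dropped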;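 note: wells of about 15 µL received 100 nL stock; the first replicate is given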
Target sequence (P08753 whole entry, looked up): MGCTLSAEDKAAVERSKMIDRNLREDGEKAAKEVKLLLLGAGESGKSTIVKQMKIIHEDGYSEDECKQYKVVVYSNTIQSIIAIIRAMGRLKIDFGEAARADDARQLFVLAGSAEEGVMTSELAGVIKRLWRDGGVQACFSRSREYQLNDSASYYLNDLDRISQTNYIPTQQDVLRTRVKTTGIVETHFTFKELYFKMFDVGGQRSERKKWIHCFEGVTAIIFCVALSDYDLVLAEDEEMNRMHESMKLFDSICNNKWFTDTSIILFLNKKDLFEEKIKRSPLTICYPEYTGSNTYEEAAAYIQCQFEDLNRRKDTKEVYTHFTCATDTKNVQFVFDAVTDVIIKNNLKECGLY
HCMV NEC inh – inhibitors of HCMV UL50-UL53 nuclear egress complex interaction; AID 1918969; inhibition, % (concentration not given with the values); hit rate 0.15% among 190,000; HTRF UL50-UL53 interaction, normalized percent inhibition;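 active = both replicates at 50% or more, plus weaker picks with an unusually low signal ratio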;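 note: stock transfer was 100 nL into about 20 µL; 0% = negative control wells and 100% = wells with untagged competitor protein; inactives centre near -12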
Sa growth 42C second temp – second read-out of Sa growth 42C, no call of its own (marks repeat the call); relative growth, %; measured here: growth at 30 °C;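 optical density after 20 h as mean of two plates; 100% = untreated growth and lower means inhibition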
* = called active by the depositor; ? = inconclusive; · = no result given; & = joins results of further samples. The list is partial; rates above refer to the full screens.

SMILES	Sa growth 42C	Sa growth 42C second temp	GIV Gai3 FP	HCMV NEC inh
CC12CCC(O)CC1CCC1C2CCC2(C)C(C(=O)O)CCC12 (stereo not given)	94.2	103.2	·	9.6
CC1(C)C(C(=O)Nc2nccs2)C1(C)C	129.5	82.2	·	-11.6
CC(C)NCC(O)c1ccc(N)c(C#N)c1 (stereo not given)	92.5	95.2	102.3	-6.8&-3.0&13.0
C[N+]12CN3CN(CN(C3)C1)C2	109.3	75.0	108.5	-48.3
CN1CCN(c2ccccc2NC(=O)C2CCC2)CC1	102.9	96.2	·	6.9
O=C1CC(=O)N(c2ccccc2)C(=O)N1c1ccccc1	94.0	85.4	118.5	-21.1
COc1ccc2[nH]cc(CCN(C)C)c2c1	101.2	93.1	101.3	·
FC(F)(F)c1ccc(N2CCNCC2)nc1	101.9	82.5	98.2	3.8
O=C1NC(=O)N(c2ccc3c(c2)OCO3)C(=O)/C1=C/c1ccc(N2CCCCC2)o1	·	·	207.1	-34.8
CC(C)OC(=O)C1C(=O)NC2(C)CC1c1ccccc1O2 (stereo not given)	104.9	91.3	97.1	-10.8
CCCC(C)C1(CC)C(=O)N=C(S)NC1=O (stereo not given)	86.3	84.7	·	-42.6
COc1ccc(CC2NCCc3cc(OC)c(OC)cc32)cc1OC (stereo not given)	85.5	86.1	·	-7.2&3.4
CN1/C(=C2\C=NN(C)P2(=S)N2CCCC2)C(C)(C)c2ccccc21 (stereo not given)	121.2	90.6	·	-22.1
CN(Cc1ccccc1)C(=O)CN1CCCC1=O	114.3	90.5	104.0	·
CCN1CCN(Cc2nnnn2C(C)(C)C)CC1	81.5	91.3	103.0	24.1
CCOP(=S)(OCC)C(Nc1ccccc1)c1ccccc1 (stereo not given)	72.0	94.9	106.3	·
CC12CCC(=O)N1C1CCCCC1N2 (stereo not given)	96.3	88.3	102.3	-25.9
Cc1ccc(-n2c(C)cc(P(=S)(N3CCOCC3)N3CCOCC3)c2C)c(C)c1	78.0	94.3	·	0.9
CC(Cc1ccccc1)NC(=O)c1ccc(N)cc1 (stereo not given)	90.8	76.8	·	-10.8
Cn1c(=O)n(C)c2cc(CNCCc3ccccc3F)ccc21	104.9	90.4	106.5	-14.3
CN1C(=O)C(=Cc2ccccc2)C(=O)N(C)C1=O	101.4	86.3	·	9.7
Cc1ccccc1N1C(=O)NC(=O)C(CCc2ccncc2)(Cc2ccc3c(c2)OCO3)C1=O (stereo not given)	94.6	98.9	99.6	-3.6
N#CC(c1ccccc1)c1ccccc1	92.8	96.0	·	-3.8
O=C1c2ccccc2C(=O)N1CCN1CC2CC(C1)c1cccc(=O)n1C2 (stereo not given)	78.8	59.8	·	-23.2
CC(=O)Nc1ccc(OP2(=O)COc3ccccc3OC2)cc1	84.2	78.3	101.4	-31.0

Two neighbouring entries already listed:
SMILES	Sa growth 42C	Sa growth 42C second temp	GIV Gai3 FP	HCMV NEC inh
CC12CCC(O)CC1CCC1C2CCC2(C)C(C(=O)O)CCC12 (stereo not given)	94.2	103.2	·	9.6
CC1(C)C(C(=O)Nc2nccs2)C1(C)C	129.5	82.2	·	-11.6

(listing goes on)
SMILES	Sa growth 42C	Sa growth 42C second temp	GIV Gai3 FP	HCMV NEC inh
CN1CCC2(CCN(Cc3ccccc3)C2)C1 (stereo not given)	95.5	91.8	·	-1.9
CCNC(=S)N1CCn2cccc2C1c1cccnc1 (stereo not given)	91.7	82.2	96.8	·
COc1ccc(OC)c(NC(=S)NCCc2cnc[nH]2)c1	114.6	91.4	106.5	-17.8
Cc1ccc(/C=C2\CC3C4CC=C5CC(O)CCC5(C)C4CCC3(C)C2O)o1 (stereo not given)	109.8	74.6	·	1.2
O=C(NCc1cccnc1)c1cc2cccnc2n(Cc2ccccc2)c1=O	·	·	109.3	-41.2
Cc1ccc(-n2nc(C)c3c2NC(=O)CSC3c2ccsc2)cc1Cl (stereo not given)	·	·	96.4	-21.8
CC(c1ccccc1)N1C(=O)NC(=O)/C(=C/c2coc3ccccc3c2=O)C1=O (stereo not given)	87.3	78.6	105.2	·
O=C(c1ccc(Cl)cc1)N1CCOCC1	112.9	100.7	101.0	-1.6
CCSc1nnc(C(N)Cc2ccccc2)o1 (stereo not given)	84.7	92.2	105.5	-20.2
CCC(=O)OC1(c2ccccc2)C(C)CN(C)CC1C (stereo not given)	107.2	89.0	·	-10.2
Cc1ccc(P2(=S)N=C3c4ccccc4CN3c3cc(N(C)C)ccc32)o1 (stereo not given)	80.3	88.9	·	-22.3
Clc1cccc(-c2cccc3c2CCNC3)c1	·	·	107.1	-21.1
CCOC(=O)C(O)(c1ccc(NC(=O)NC)cc1)C(F)(F)F (stereo not given)	95.9	88.0	105.4	-19.2
CCN1CCC2(CC1)N=C(c1ccccc1)C(=S)N2	103.7	80.3	97.3	-69.3
COc1ccc(CCNCc2ccccc2)cc1	101.3	85.3	·	-13.4
Cc1nc2cc(Cl)ccc2c(=O)n1-c1ncn[nH]1	·	·	101.2	-20.4
O=c1[nH]c(=S)[nH]c(O)c1CN1CCOCC1	98.6	86.2	·	-7.5
O=C1/C(=C/c2cccnc2)N2CCC1CC2	91.7	84.9	97.8	-25.4
N#CCCn1cc(C(=O)n2nnc3ccccc32)c(-c2ccccc2)n1	94.8	99.2	108.9	0.3
Cc1ccccc1-c1nc(CN2C(=O)CN=C(c3ccccc3)c3ccccc32)c(C)o1	106.5	91.7	102.1	-31.3
CC(C)Cc1nc2cccnc2n1C1CCNCC1	102.4	93.0	111.0	·
O=C(/C=C/c1ccccc1)N1CCN(Cc2cccc(F)c2)CC1	87.0	110.2	107.8	-3.3
O=C1CN=C(c2ccccc2Cl)c2cc([N+](=O)[O-])ccc2N1	89.4	97.0	·	-51.0
COC(=O)C1=C(N)Oc2cc(C)[nH]c(=O)c2C12C(=O)N(CC(C)C)c1ccccc12 (stereo not given)	?	·	101.3	-35.4
Oc1ccc(CN2CCN(c3cccc(C(F)(F)F)c3)CC2)cc1	137.0	95.5	100.3	-2.3

Arranged by molar mass (high to low): some entries from above
SMILES	Sa growth 42C	Sa growth 42C second temp	GIV Gai3 FP	HCMV NEC inh
N#CCCn1cc(C(=O)n2nnc3ccccc32)c(-c2ccccc2)n1	94.8	99.2	108.9	0.3
CCNC(=S)N1CCn2cccc2C1c1cccnc1 (stereo not given)	91.7	82.2	96.8	·
CC(C)Cc1nc2cccnc2n1C1CCNCC1	102.4	93.0	111.0	·
Clc1cccc(-c2cccc3c2CCNC3)c1	·	·	107.1	-21.1
O=c1[nH]c(=S)[nH]c(O)c1CN1CCOCC1	98.6	86.2	·	-7.5
O=C1/C(=C/c2cccnc2)N2CCC1CC2	91.7	84.9	97.8	-25.4

In the list so far, these contain a CF3 group:
SMILES	Sa growth 42C	Sa growth 42C second temp	GIV Gai3 FP	HCMV NEC inh
FC(F)(F)c1ccc(N2CCNCC2)nc1	101.9	82.5	98.2	3.8
CCOC(=O)C(O)(c1ccc(NC(=O)NC)cc1)C(F)(F)F (stereo not given)	95.9	88.0	105.4	-19.2
Oc1ccc(CN2CCN(c3cccc(C(F)(F)F)c3)CC2)cc1	137.0	95.5	100.3	-2.3

Continued:
SMILES	Sa growth 42C	Sa growth 42C second temp	GIV Gai3 FP	HCMV NEC inh
CCNC1(c2cccc(Cl)c2)CCC1	101.5	83.7	·	-13.3
Cc1ccc(-c2nc(Cn3cc(C=C4C(=O)N(C)C(=O)N(C)C4=O)c4ccccc43)no2)cc1	127.3	91.6	104.8	·
CN1CCN(C(=O)Cc2ccc(F)cc2)CC1	94.7	85.4	·	-7.7
O=C(OCc1nc2c(oc3ccccc32)c(=O)[nH]1)C(O)(c1ccccc1)c1ccccc1	91.6	102.7	·	-5.7
Cc1cccc(NC(=O)Cn2cc(C(=O)c3ccccc3)c3ccccc32)c1C	94.8	95.8	99.4	-10.6
CCN1CCN(Cc2cccc(Br)c2)CC1	102.3	114.6	101.0	-3.6

Single records (already shown). Values in the order: Sa growth 42C, Sa growth 42C second temp, GIV Gai3 FP, HCMV NEC inh
Listed for `Cc1ccc(-c2nc(Cn3cc(C=C4C(=O)N(C)C(=O)N(C)C4=O)c4ccccc43)no2)cc1` = 127.3, 91.6, 104.8, ·
Listed for `Cc1cccc(NC(=O)Cn2cc(C(=O)c3ccccc3)c3ccccc32)c1C` = 94.8, 95.8, 99.4, -10.6
Listed for `O=C(OCc1nc2c(oc3ccccc32)c(=O)[nH]1)C(O)(c1ccccc1)c1ccccc1` = 91.6, 102.7, ·, -5.7
Listed for `CCN1CCN(Cc2cccc(Br)c2)CC1` = 102.3, 114.6, 101.0, -3.6
Listed for `CN1CCN(C(=O)Cc2ccc(F)cc2)CC1` = 94.7, 85.4, ·, -7.7
